# Screening data (PubChem BioAssay)
# Insulin prom inh: inhibitors of insulin promoter-driven GFP, primary screen, imaging, TRM-6 cells (human fetal islet line), eGFP reporter, cell count; reporter expression induced with tamoxifen; inhibition, % at 2 µM; 130,000 tested, 0.9% active; AID 1273, 2008;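 active = inhibition above the mean plus 3 SD, with well images judged a real hit on visual review, cut at about 60% in these data, passing the limit was not always enough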
# HSV augment: enhancers of HSV replication in host cells, fold increase, host cell viability | HSV replication augmentation in cells | maximum fold increase | 220,000 tested, 0.005% active | AID 1956, 2009;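 active = peak rise of 1.5-fold or more in the series; tested in PC3 cells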;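 also: first round at 10 µM; read as green reporter fluorescence; hits show the peak of a series up to 25 µM; 1 = signal of infected wells without compound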
# RGS16-Gao: modulators of RGS16 binding to Galphao, primary screen, biochemical, human proteins, multiplexed bead flow cytometry | Regulator of G-protein signaling 16 (Homo sapiens) + Guanine nucleotide-binding protein … | bead-based flow cytometry RGS16-Galphao binding, fluorescence; actives lie on both sides | binding response (% of control), % at 10 µM | 220,000 tested, 0.38% active;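 active = below 25% or above 175%, edge rows of some plates excepted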;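 also: Galphao activated by GDP with aluminum fluoride before binding; 100% = wells without compound and 0% = beads without RGS; some results beyond the cut were filed as inactive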
# Target sequence (O15492 whole entry, looked up): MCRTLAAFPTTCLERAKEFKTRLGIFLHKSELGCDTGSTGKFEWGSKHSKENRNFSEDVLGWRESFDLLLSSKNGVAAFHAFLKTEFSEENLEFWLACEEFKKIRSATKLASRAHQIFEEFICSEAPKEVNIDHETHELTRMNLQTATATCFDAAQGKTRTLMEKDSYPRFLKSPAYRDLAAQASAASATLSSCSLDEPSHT
# Target sequence (P09471 whole entry, looked up): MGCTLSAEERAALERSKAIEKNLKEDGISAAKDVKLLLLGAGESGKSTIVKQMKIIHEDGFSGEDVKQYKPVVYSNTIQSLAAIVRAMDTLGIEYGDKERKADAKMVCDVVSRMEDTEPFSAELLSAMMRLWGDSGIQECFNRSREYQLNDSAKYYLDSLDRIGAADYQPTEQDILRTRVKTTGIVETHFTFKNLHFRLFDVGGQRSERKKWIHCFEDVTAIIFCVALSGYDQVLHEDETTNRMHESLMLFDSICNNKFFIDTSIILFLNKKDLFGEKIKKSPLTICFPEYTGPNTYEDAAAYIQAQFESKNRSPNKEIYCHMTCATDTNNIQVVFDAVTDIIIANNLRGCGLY
# GALR2 ag: GALR2 receptor agonists, primary screen, cell-based; 140,000 tested, 0.48% active; activation, %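 (tested at 5 µM)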; GALR2-expressing cells, agonist activation read-out;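 active = above mean plus 3 SD of all compounds, about 5% in these data, not always enough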;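 also: 0% = vehicle buffer wells and 100% = reference agonist at full effect; tested in CHO reporter cells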
# Target sequence (O43603 whole entry, looked up): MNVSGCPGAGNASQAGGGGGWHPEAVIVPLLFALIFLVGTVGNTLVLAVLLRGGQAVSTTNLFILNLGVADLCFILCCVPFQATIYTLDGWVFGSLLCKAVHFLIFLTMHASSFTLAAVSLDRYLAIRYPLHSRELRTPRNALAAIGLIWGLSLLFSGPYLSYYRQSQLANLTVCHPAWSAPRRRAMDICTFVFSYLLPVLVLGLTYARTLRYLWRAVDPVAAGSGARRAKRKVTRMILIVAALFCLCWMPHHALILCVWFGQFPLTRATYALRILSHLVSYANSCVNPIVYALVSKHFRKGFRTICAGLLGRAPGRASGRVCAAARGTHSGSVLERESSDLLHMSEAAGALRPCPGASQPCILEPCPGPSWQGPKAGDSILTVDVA
# PKD1 kinase inh: inhibitors of human PKD1 kinase, biochemical, fluorescence polarization | PKD1 kinase fluorescence polarization assay | Serine/threonine-protein kinase D1 (Homo sapiens), Q15139 | AID 797, 2007 | 200,000 tested, 0.056% active | inhibition, %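 (about 10 µM by stock and volumes)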;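 active = inhibition of 50% or more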;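 also: controls were vehicle for no effect and a reference inhibitor for full effect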
# Insulin prom inh cell count: also measured in Insulin prom inh; calls as there; normalized cell count, %; measured here: cell count, toxicity; reference of the scale not given here;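 cells exposed to compound for 48 h; stained nuclei by imaging scaled within each plate; lower means fewer cells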
# HSV augment primary fold: further read-out of HSV augment, marked with its call; fold increase; compound at 10 µM; measured here: primary screen fold increase 10 uM; tested in PC3 cells;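 GFP signal in the first replicate; 1 = infected wells without compound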
# An asterisk follows results filed as active; i = inactive; nt = not tested or not shown.
SMILES,Insulin prom inh,Insulin prom inh cell count,HSV augment,HSV augment primary fold,RGS16-Gao,GALR2 ag,PKD1 kinase inh
CC1(C)CC(=O)C2=C(C1)N(c1ccc(F)cc1)C(=O)C2(O)C(F)(F)F (centres undefined),13.3,113.6,nt,nt,99.9,-3.3,-0.3
CCOC(=O)c1cnn(CCOC(=O)c2cccc(F)c2)c1NC(=O)c1cccc(F)c1,nt,nt,i,1.09,75.5,-1.0,7.6
CCOc1cc(NC(=O)c2ccco2)c(OCC)cc1NC(=O)Cc1cccc(OC)c1,5.3,101.4,i,0.76,90.5,2.0,0.9
O=C(COC(=O)CCCc1c[nH]c2ccccc12)Nc1ccc2c(c1)OCO2,nt,nt,i,1.04,56.2,-1.4,-14.3
COc1ccc([N+](=O)[O-])cc1NS(=O)(=O)c1ccc(Cl)c(C(=O)Nc2sc3c(c2C#N)CCCCC3)c1,25.0,84.0,i,1.03,108.5,nt,-2.6
CCOC(=O)Nc1nc(-c2ccc(Cl)cc2Cl)cs1,-42.9,24.5,i,1.02,111.0,-1.1,-8.3
CCC(=O)n1nc(-c2ccc(Cl)cc2)nc1NCc1ccccc1,nt,nt,i,0.64,103.6,-1.9,2.9
COc1ccc2c(c1)CCc1c(C(=O)NCCCn3ccnc3)noc1-2,-66.7,117.0,i,0.91,133.4,-0.7,2.9
O=C(Nc1ncccn1)c1cc(-c2cccc(Br)c2)nc2ccccc12,13.9,100.0,i,0.97,93.2,-0.2,-8.8
COc1cc(CN2CCN(S(=O)(=O)c3ccc(F)cc3)CC2)cc(OC)c1OC,nt,nt,i,0.95,97.8,0.6,-9.1
C=CCSc1nnc(CC(OC)OC)n1-c1ccccc1,36.4,150.9,i,0.9,111.3,nt,-9.8
N#Cc1c2c(c(-c3ccco3)[nH]c1=O)CCCC2,nt,nt,i,1.15,111.5,0.5,1.8

# An excerpt of the results above, as a working copy:
SMILES,Insulin prom inh,Insulin prom inh cell count,HSV augment,HSV augment primary fold,RGS16-Gao,GALR2 ag,PKD1 kinase inh
CC1(C)CC(=O)C2=C(C1)N(c1ccc(F)cc1)C(=O)C2(O)C(F)(F)F (centres undefined),13.3,113.6,nt,nt,99.9,-3.3,-0.3
CCOC(=O)c1cnn(CCOC(=O)c2cccc(F)c2)c1NC(=O)c1cccc(F)c1,nt,nt,i,1.09,75.5,-1.0,7.6
CCOc1cc(NC(=O)c2ccco2)c(OCC)cc1NC(=O)Cc1cccc(OC)c1,5.3,101.4,i,0.76,90.5,2.0,0.9

# Returning to the listing, starting two compounds before the break.
SMILES,Insulin prom inh,Insulin prom inh cell count,HSV augment,HSV augment primary fold,RGS16-Gao,GALR2 ag,PKD1 kinase inh
C=CCSc1nnc(CC(OC)OC)n1-c1ccccc1,36.4,150.9,i,0.9,111.3,nt,-9.8
N#Cc1c2c(c(-c3ccco3)[nH]c1=O)CCCC2,nt,nt,i,1.15,111.5,0.5,1.8
Cc1cc(C)c(C)c(S(=O)(=O)NCc2ccc(C(=O)N3CCCC3)cc2)c1C,nt,nt,i,1.06,82.9,nt,-6.4
CN(NS(=O)(=O)c1ccc(Cl)cc1)c1nc(C(F)(F)F)nc2ccccc12,38.5,97.1,nt,nt,101.7,nt,3.1
Nc1nc2nccc(-c3ccc(Cl)cc3)n2n1,nt,nt,i,0.96,97.0,-0.9,1.7
C=C(C)CSc1nnc2n(C)c(=O)c3c4c(sc3n12)CCC4,-15.6,76.4,i,0.87,103.4,2.2,0.8
Cc1cccc(C=Nc2ccccc2C(N)=O)c1,11.1,96.7,i,1.1,100.3,-1.6,-1.4
COc1ccc(-c2nnn(CC(=O)N3CCOCC3)n2)cc1,-28.6,82.5,i,1.01,94.6,-0.3,-5.1
COC(=O)c1ccccc1NC(=O)c1ccnn1C,nt,nt,i,1.03,100.9,nt,-4.2
COc1cccc(CNC(=O)CCC2CCCN(Cc3ccc(OC(F)F)cc3)C2)c1 (centres undefined),-16.7,96.1,i,1.23,101.3,nt,12.2
CCOc1ccc(-n2cc(C(=O)N3CCCCCC3)c3cc(OC)c(OC)cc3c2=O)cc1,-9.1,100.6,i,1.02,102.7,0.3,-1.3
COc1ccc(CNC(=O)C2CC(=O)N(c3ccc(OCC(=O)N4C(C)CCCC4C)cc3)C2)cc1 (centres undefined),71.4,87.6,i,1.04,98.6,-0.7,4.0
Oc1ccccc1/C=N/Nc1nn[nH]n1,nt,nt,i,1.01,105.7,nt,nt
C/C(CCc1oc2ccc(Br)cc2c1-c1ccc(C)o1)=N/O,25.0,122.7,i,0.92,107.6,-1.4,12.4
CC(C)N(C)CCOC(=O)c1ccccc1Br,42.9,130.1,i,1.17,74.5,0.6,7.8
O=C(/C=C/c1ccc(-c2ccccc2[N+](=O)[O-])o1)c1ccco1,nt,nt,i,0.9,97.0,nt,-0.5
O=C(O)CCn1nnc(-c2ccccc2)n1,33.3,137.8,i,1.04,98.3,nt,3.9
COc1cccc(C2C(C#N)=C(N)OC3=C2C(=O)CC(c2ccco2)C3)c1OCc1ccc(F)cc1 (centres undefined),-31.2,68.8,i,1.01,120.4,-2.8,6.0
NCCCC[C@H](N)c1nnc([C@H](CCC(=O)O)NC(=O)C2CCNCC2)o1,nt,nt,i,1.08,104.5,nt,-3.1
O=[N+]([O-])c1ccc(OCc2cnc(Cl)s2)cc1,-239.5,59.5,i,1.1,101.3,nt,1.5
CC1CN(C(=O)/C(C#N)=C2\N=C(NC(=O)c3ccccc3Cl)c3ccccc32)CC(C)O1 (centres undefined),-31.2,59.0,i,1.03,34.9,-0.9,-9.2
Cc1[nH]c(=S)[nH]c(=O)c1CCOc1ccccc1,57.1,107.3,i,1.01,102.8,-1.6,5.4
Cc1ccc(NC(=O)c2cc(-c3ccccc3)nn2-c2ccccc2)c(Br)c1,17.6,70.4,i,1.03,98.4,-1.6,-14.6
CCOC(=O)c1ccc(N=C2S/C(=C\c3cc(C)n(-c4cccnc4)c3C)C(=O)N2C)cc1,-43.5,74.6,i,1,101.3,-0.8,-2.7
Cc1ccc(Cn2ccnc2C(=O)Nc2ccccc2)cc1,nt,nt,i,1.12,91.5,nt,2.9
COc1ccc(NC(=O)C2CCN(C(=O)c3cccs3)CC2)cc1,-42.9,57.0,i,0.91,104.8,-4.1,-15.8
CCS(=O)(=O)CCSC(=N)N,8.7,105.8,i,0.74,108.7,-1.2,-2.7
CCOc1cc(N2CCOCC2)c(OCC)cc1NC(=O)COC(=O)CCc1c[nH]c2ccccc12,-500.0,39.0,i,1.02,81.7,-0.6,-4.7
COc1ccccc1CN(Cc1nc2ccccc2c(=O)[nH]1)S(=O)(=O)c1ccc(C)cc1,-115.6,43.9,i,1.01,103.5,-0.4,-2.2
CCOC(=O)c1c(N)sc2c1CCC(CC)C2 (centres undefined),-8.7,110.3,i,0.97,101.4,-3.1,-3.2
CC(=O)Nc1ccc(S(=O)(=O)N2CC3(C)CC2CC(C)(C)C3)cc1 (centres undefined),4.8,103.3,i,0.9,95.7,nt,-8.2
CC(C)N1CCC(N2CCN(Cc3nc4ccccc4s3)CC2CCO)CC1 (centres undefined),nt,nt,i,0.93,103.2,nt,nt
CCC1=NN2C(=N)/C(=C\c3ccc(OCc4cc(=O)n5nc(CC)sc5n4)c(OC)c3)C(=O)N=C2S1,nt,nt,i,0.92,94.5,nt,6.4
CCC(NS(=O)(=O)c1ccc(C)cc1)C(=O)Nc1ccc(NC(C)=O)cc1 (centres undefined),35.0,112.5,i,0.92,100.5,-2.9,-4.8
Nc1nc(N)c2nc(-c3ccccc3)c(N)nc2n1,59.1,100.0,i,0.87,101.4,0.6,-5.5
O=C(CCCc1ccccc1)Nc1nncs1,37.5,118.8,i,0.96,100.0,-3.8,-4.8
CC(Oc1ccccc1)C(=O)Nc1nnc(C2CCCCC2)s1 (centres undefined),nt,nt,i,1,107.6,nt,-4.3
O=S(=O)(c1ccc(-c2ccon2)s1)N1CCCC1,nt,nt,i,0.94,102.4,nt,nt

# Shown with values under each structure: entries from further up.
# Each structure is followed by: Insulin prom inh | Insulin prom inh cell count | HSV augment | HSV augment primary fold | RGS16-Gao | GALR2 ag | PKD1 kinase inh
O=S(=O)(c1ccc(-c2ccon2)s1)N1CCCC1
 : nt | nt | i | 0.94 | 102.4 | nt | nt
O=C(CCCc1ccccc1)Nc1nncs1
 : 37.5 | 118.8 | i | 0.96 | 100.0 | -3.8 | -4.8

# Later entries:
SMILES,Insulin prom inh,Insulin prom inh cell count,HSV augment,HSV augment primary fold,RGS16-Gao,GALR2 ag,PKD1 kinase inh
O=C(Nc1ccc(F)cc1)c1nc[nH]c1C(=O)Nc1ccc([N+](=O)[O-])cc1,17.9,75.0,i,0.95,207.1,-1.5,-0.4
CCCN1CCN(CCCNC(=O)c2cc3c(=O)[nH]c4ccc(C)cc4c3s2)CC1,nt,nt,i,0.71,95.7,nt,nt
CC(/C=N/Nc1nncc(=O)[nH]1)=C\c1ccccc1,nt,nt,i,0.94,105.1,-0.8,-3.1
COC(=O)C1CCCN1C(=O)c1cccs1 (centres undefined),15.4,103.6,i,0.92,167.4,-3.1,-4.7
O=c1oc2ccccc2c(Nc2cccc(O)c2)c1[N+](=O)[O-],3.7,128.7,i,1,99.5,-1.2,0.0
O=c1[nH]cnc2c1ncn2Cc1ccc([N+](=O)[O-])cc1,nt,nt,i,1.17,105.0,nt,nt
O=C(Nc1cccnc1)c1cc2nc(C3CC3)cc(C(F)(F)F)n2n1,50.0,103.2,i,0.87,101.0,-1.6,-9.5
CC1(C)CC(=O)C(N=Nc2ccc(S(=O)(=O)N3CCCCCC3)cc2)=C(O)C1,0.0,78.9,i,1.01,127.1,-1.9,4.4
Cn1c(C(=O)NCc2cccs2)cc2oc3ccccc3c21,-7.7,108.5,nt,nt,100.4,-0.5,-6.6
O=C(CCNS(=O)(=O)c1ccc(Br)s1)NC1CCCC1,nt,nt,i,1,92.3,-4.1,-6.2
COc1ccc(C)cc1NC(=O)CN(c1ccccc1)S(C)(=O)=O,nt,nt,i,0.93,98.8,-3.7,1.1
COc1ccc(-c2nc(CS(=O)CC(=O)N3CCc4ccccc4C3)c(C)o2)cc1 (centres undefined),nt,nt,i,0.86,101.1,-4.9,-2.1
CCC(CO)Nc1ncc([N+](=O)[O-])cc1C#N (centres undefined),nt,nt,i,1.28,34.6,-0.2,0.5
COc1ccc(-n2c(CCc3ccccc3)n[nH]c2=S)cc1,nt,nt,i,0.92,93.6,nt,0.7
Oc1cccc(/C=N/N2CCN(C3c4ccccc4-c4ccccc43)CC2)c1,nt,nt,i,1.05,101.4,nt,nt
Nc1ccc(S(=O)(=O)Nc2nc(-c3ccccc3)cc(-c3ccccc3)n2)cc1,nt,nt,i,0.8,93.1,nt,nt
CC(=O)C1=C(N2CCCCC2)CCC1=O,-140.0,119.2,i,0.69,76.7,-5.3,11.6
CN(C)/C=N/c1nc2nccc(-c3cccnc3)n2n1,14.3,103.6,i,0.91,103.4,nt,-0.9
CC1=C(C)CC(C(=O)NCc2ccc3c(c2)OCO3)C(C(=O)O)C1 (centres undefined),44.8,81.8,i,1.01,98.7,-0.5,-6.7
OCCN(CCO)c1ccc(C(c2ccc(Cl)cc2)c2ccc(N(CCO)CCO)cc2Cl)c(Cl)c1,nt,nt,i,1.04,80.6,0.6,-4.3
Cc1ccc(CN2CCN(C(=O)C3CCCO3)CC2)cc1 (centres undefined),35.1,54.1,i,0.83,108.1,-1.1,-9.8
CCOC(=O)C(Sc1nnc(-c2ccncc2)o1)C(C)=O (centres undefined),nt,nt,i,1.01,101.5,-3.8,-4.5
CC(=O)Nc1ccc(S(=O)(=O)NCCCN2CCN(Cc3ccccc3)CC2)cc1Cl,nt,nt,i,1.09,96.6,nt,nt
COc1ccccc1C(=O)C1CCCN(Cc2ccc(Oc3ncccn3)cc2)C1 (centres undefined),nt,nt,i,0.98,113.5,nt,-4.3
COc1cccc(-n2nnc3c(=O)n(CC(=O)NCC4CCCO4)cnc32)c1 (centres undefined),nt,nt,i,0.83,105.6,-0.1,-4.7
CCCCC(=O)N1CCCC(c2nc(-c3cccc(OC)c3)no2)C1 (centres undefined),nt,nt,i,0.92,103.8,nt,-5.0
CN1CCN(S(=O)(=O)c2ccc(-c3ccccc3)cc2)CC1,-3.9,171.1,i,0.82,109.8,-0.6,-0.7
COc1ccccc1N/C(=N/c1nc(C)cc(C)n1)NC(C)=O,50.0,122.2,i,0.91,99.9,-0.7,-3.4
Fc1ccc(N2CCN(Cc3cnc(Cl)s3)CC2)cc1,14.3,65.2,i,1.03,101.2,nt,5.7
CCn1nnc(NC(=O)c2ccc([N+](=O)[O-])o2)n1,-5.9,90.6,i,0.78,96.6,nt,-3.1
CCCSc1nnc(Sc2nnnn2-c2ccccc2)s1,nt,nt,nt,nt,95.6,-1.7,-11.5
